# Compound activity: PubChem BioAssay, Broad Institute
# Yeast UUG start = modulators of yeast start codon fidelity, primary screen, whole organism, S. cerevisiae, single point, plate reader; AID 602363, 2012; 350,000 tested, 0.13% active; activity score, % at 18.7 µM; S. cerevisiae UUG-firefly luciferase reporter, luminescence/redox ratio;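 active = replicate mean at a twofold rise or more, about +100% in these data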;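 note: firefly luciferase made from a UUG start codon reports start codon fidelity; reporter light over untreated wells divided by growth signal over untreated wells; some hits fall short of that in this replicate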
# Active calls of the source: *.
SMILES,Yeast UUG start
O=C(NCCc1ccccc1)[C@@H]1[C@@H](CO)[C@@H]2Cn3c(cccc3=O)[C@H]1N2C(=O)C1CCC1,30
CCN(C[C@@H]1[C@@H](c2ccc(-c3ccccc3)cc2)[C@H](CO)N1C(C)=O)C(C)=O,38
CO[C@H]1CN(C)C(=O)c2ccc(NC(=O)C3CCCC3)cc2OC[C@@H](C)N(CC2CC2)C[C@@H]1C,0
CCC(=O)Nc1ccc2c(c1)C(=O)N(C)C[C@@H](OC)[C@H](C)CN(CC1CCCCC1)[C@@H](C)CO2,3
COc1ccc(S(=O)(=O)N2CCCCN3[C@H](CO)[C@@H](c4ccc(C#CCC(C)C)cc4)[C@H]3C2)cc1,-9
C[C@@H]1CN([C@H](C)CO)C(=O)c2cc(NC(=O)Cn3cnnn3)ccc2O[C@@H]1CN(C)C(=O)NC1CCCCC1,7
O=C(Nc1ccc(F)cc1)N1CCCCN2[C@H](C1)[C@H](c1ccc(C#CC3CC3)cc1)[C@@H]2CO,8
O=C(c1cccc(F)c1)N1CC[C@@H]2[C@@H](CO)Nc3ccc(-c4ccccc4F)cc3[C@@H]21,0
O=C(c1cccc(F)c1)N1C[C@@H]2[C@H](c3ccccc31)[C@@H](CO)N2C(=O)c1cccc(F)c1,10
C[C@H](CO)N1C[C@H](C)[C@H](CN(C)S(=O)(=O)c2ccccc2)Oc2ccc(NC(=O)C3CCCCC3)cc2CC1=O,13
CN1c2ccc(-c3ccc(C#N)cc3)cc2[C@@H]2[C@@H](CCN2C(=O)Cc2ccccn2)[C@@H]1CO,5
Cc1cccc(S(=O)(=O)N2CC[C@@H]3[C@H](CO)N(C)c4ccc(-c5cccc(C#N)c5)cc4[C@@H]32)c1,-2
CCCN1C[C@@H](C)[C@@H](OC)CN(C)C(=O)c2cc(NC(=O)c3cccc(F)c3)ccc2OC[C@H]1C,5
COc1cccc(S(=O)(=O)N2CCCCN3[C@@H](CO)[C@H](c4ccc(-c5ccccc5)cc4)[C@@H]3C2)c1,-6
C[C@@H]1CN([C@H](C)CO)C(=O)c2cc(NC(=O)NC3CCCCC3)ccc2O[C@H]1CN(C)S(=O)(=O)c1cn(C)cn1,5
N#Cc1cccc(-c2ccc([C@H]3[C@H]4CN(C(=O)Nc5cccc(F)c5)CCCCN4[C@H]3CO)cc2)c1,-1
C[C@@H]1CN([C@H](C)CO)C(=O)c2cccc(NS(=O)(=O)c3cccs3)c2O[C@@H]1CN(C)C(=O)Nc1ccc2c(c1)OCO2,0
Cc1noc(C)c1S(=O)(=O)N(C)C[C@@H]1Oc2ccc(NC(=O)Nc3ccc4c(c3)OCO4)cc2C(=O)N([C@@H](C)CO)C[C@@H]1C,5
Cc1cccc(-c2ccc([C@@H]3[C@@H](CO)N4CCCCN(S(=O)(=O)c5cccc(C)c5)C[C@H]34)cc2)c1,-3
C[C@@H]1CN([C@H](C)CO)C(=O)c2cc(NS(=O)(=O)c3ccc(Cl)cc3)ccc2O[C@@H]1CN(C)Cc1ccc(C(=O)O)cc1,20

# Gathered by group: those above with an aryl methoxy group (two)
SMILES,Yeast UUG start
COc1ccc(S(=O)(=O)N2CCCCN3[C@H](CO)[C@@H](c4ccc(C#CCC(C)C)cc4)[C@H]3C2)cc1,-9
COc1cccc(S(=O)(=O)N2CCCCN3[C@@H](CO)[C@H](c4ccc(-c5ccccc5)cc4)[C@@H]3C2)c1,-6

# The listing continues.
SMILES,Yeast UUG start
CNC[C@H]1Oc2ccc(NC(=O)NC(C)C)cc2CC(=O)N([C@@H](C)CO)C[C@@H]1C,4
CN(C)C(=O)c1cccc(-c2ccc3c(c2)[C@H]2[C@H](CCN2C(=O)c2cccnc2)[C@@H](CO)N3)c1,4
C[C@@H]1CN([C@H](C)CO)C(=O)c2cc(NC(=O)Nc3ccc4c(c3)OCO4)ccc2O[C@@H]1CN(C)S(=O)(=O)c1ccc(F)cc1,-11
C[C@H]1CN([C@@H](C)CO)C(=O)c2cc(NC(=O)c3ccncc3)ccc2O[C@H]1CN(C)S(=O)(=O)c1ccccc1,20
C[C@H]1CN([C@@H](C)CO)C(=O)Cc2cc(NC(=O)Cc3cn(C)c4ccccc34)ccc2O[C@@H]1CN(C)Cc1ccncc1,-15
C[C@H](CO)N1C[C@H](C)[C@@H](CN(C)Cc2ccc(Cl)c(Cl)c2)Oc2ccc(NC(=O)Nc3ccc(C(F)(F)F)cc3)cc2C1=O,-12
O=C(CC(F)(F)F)N1C[C@@H]2[C@H](c3ccccc31)[C@@H](CO)N2C(=O)C1CCCCC1,-10
O=C(NC[C@@H]1N[C@@H](CO)[C@@H]1c1ccc(C2=CCCC2)cc1)c1ccccc1,2
Cc1ccccc1-c1ccc([C@H]2[C@H]3CN(C(=O)Nc4ccccc4)CCCCN3[C@H]2CO)cc1,10
Cc1ccc(S(=O)(=O)N(C)C[C@H]2OCc3ccccc3-c3c(n(C)c4ccccc34)C(=O)N([C@H](C)CO)C[C@H]2C)cc1,-8
C[C@H]1CN([C@@H](C)CO)C(=O)c2cc(NC(=O)Cn3cnnn3)ccc2O[C@H]1CN(C)S(=O)(=O)c1cccs1,-7
CN1C(=O)c2cc(NC(=O)c3cccc(F)c3)ccc2OC[C@H]2O[C@H](CC(=O)N3CCc4ccccc4C3)CC[C@@H]21,-12
COc1cccc(-c2ccc([C@H]3[C@@H](CO)N4CCCCN(S(=O)(=O)c5cccs5)C[C@@H]34)cc2)c1,-5
CO[C@H]1CN(C)C(=O)c2ccc(NC(C)=O)cc2OC[C@H](C)N(C(=O)c2ccncc2)C[C@H]1C,18
CC(C)NC(=O)Nc1ccc2c(c1)CC(=O)N([C@H](C)CO)C[C@H](C)[C@@H](CN(C)Cc1ccncc1)O2,-2
CCCC#Cc1ccc([C@@H]2[C@H]3CN(S(=O)(=O)c4ccccc4F)CCCCN3[C@H]2CO)cc1,-3
C[C@@H]1CN([C@@H](C)CO)C(=O)Cc2cc(NC(=O)CCCN(C)C)ccc2O[C@H]1CN(C)C(=O)Nc1ccc(F)cc1,0
CO[C@@H]1CN(C)C(=O)c2ccc(NC(=O)C3CCCC3)cc2OC[C@@H](C)N(C)C[C@H]1C,2
CS(=O)(=O)Nc1ccc2c(c1)[C@H]1C[C@H](CC(=O)N3CCCCC3)O[C@H](CO)[C@H]1O2,-2
Cc1ccc(S(=O)(=O)N(C)C[C@@H]2Oc3ccc(NC(=O)C4CC4)cc3C(=O)N([C@@H](C)CO)C[C@H]2C)cc1,0
C[C@@H]1CN([C@@H](C)CO)C(=O)c2cc(NC(=O)Nc3cccc4ccccc34)ccc2O[C@H]1CN(C)Cc1ccc(-c2ccccc2)cc1,-1
OC[C@@H]1Nc2ccc(-c3ccccc3)cc2[C@@H]2[C@H]1CCN2Cc1ccc(F)cc1,1
C[C@H](CO)N1C[C@H](C)[C@@H](CN(C)S(=O)(=O)c2ccc(Cl)cc2)Oc2ccc(NC(=O)CCC(F)(F)F)cc2C1=O,-2
Cc1ccc(S(=O)(=O)Nc2ccc3c(c2)CC(=O)N([C@@H](C)CO)C[C@@H](C)[C@@H](CN(C)Cc2ccncc2)O3)cc1,-8
CCC(=O)NC[C@@H]1[C@H](c2ccc(C3=CCCC3)cc2)[C@@H](CO)N1C(=O)C1CC1,-6
C[C@H](NC(=O)C[C@@H]1CC[C@@H]2[C@H](COC[C@@H](O)CN2C(=O)Nc2cccc(F)c2)O1)c1ccccc1,15
O=C(Cc1ccccc1)N1CC[C@@H]2[C@@H](CO)Nc3ccc(-c4ccccc4)cc3[C@@H]21,-16
C[C@@H](O)C#Cc1ccc([C@@H]2[C@H]3CN(C(=O)c4cccc(F)c4)CCCCN3[C@H]2CO)cc1,1
O=C(NC1CCCC1)[C@H]1[C@H](CO)[C@H]2Cn3c(cccc3=O)[C@@H]1N2CC1CCCC1,4
COc1ccc(NC(=O)Nc2cccc3c2O[C@H](CN(C)CC2CCCCC2)[C@H](C)CN([C@@H](C)CO)C3=O)cc1,0
C[C@@H]1CN([C@H](C)CO)C(=O)Cc2cc(NC(=O)NC3CCCCC3)ccc2O[C@@H]1CN(C)S(=O)(=O)c1ccc(F)cc1,13
C[C@@H]1CN([C@@H](C)CO)C(=O)c2cccc(NC(=O)c3ccc(-c4nccs4)cc3)c2O[C@H]1CN(C)S(=O)(=O)c1ccc(F)cc1,9
O=C(c1cccc(F)c1)N1CC[C@@H]2[C@@H](CO)Nc3ccc(C#Cc4ccc(F)cc4)cc3[C@@H]21,-14
CO[C@@H]1CN(C)C(=O)c2cc(NC(=O)C3CC3)ccc2OC[C@@H](C)N(C(=O)c2ccccc2)C[C@@H]1C,7
COc1ccc(NC(=O)N(C)C[C@H]2Oc3c(NC(=O)C4CCOCC4)cccc3C(=O)N([C@@H](C)CO)C[C@@H]2C)cc1,37
O=C(Nc1ccccc1)N1CCCCN2[C@H](CO)[C@@H](c3ccc(C#CC4CC4)cc3)[C@@H]2C1,42
C[C@H](CO)N1C[C@H](C)[C@H](CN(C)C(=O)Nc2ccc(F)cc2)Oc2c(NC(=O)Nc3ccccc3)cccc2C1=O,7
CO[C@H]1CN(C)C(=O)c2cc(NC(=O)C3CC3)ccc2OC[C@H](C)N(Cc2cccc(F)c2)C[C@@H]1C,-10
C[C@H](CO)N1C[C@H](C)[C@@H](CN(C)Cc2ccc(C(F)(F)F)cc2)Oc2c(NC(=O)Nc3ccc(F)cc3)cccc2C1=O,2
O=C(C[C@H]1CC[C@@H]2[C@H](COC[C@@H](O)CN2Cc2ccc(Cl)cc2)O1)Nc1nccs1,47
COc1ccccc1NC(=O)N1C[C@@H]2[C@H](c3ccccc31)[C@H](CO)N2Cc1ccccc1F,-14
Cc1cccc(S(=O)(=O)N2CCCCN3[C@@H](CO)[C@@H](c4ccc(C#CC5CC5)cc4)[C@@H]3C2)c1,6
O=C(NC1CCCC1)N1CCCCN2[C@H](CO)[C@H](c3ccc(-c4cccnc4)cc3)[C@H]2C1,-20
CN(C)CC#Cc1ccc([C@@H]2[C@H](CO)N3CCCCN(S(=O)(=O)c4ccccc4)C[C@@H]23)cc1,8
COc1cccc(S(=O)(=O)N2C[C@H](O)COC[C@H]3O[C@@H](CC(=O)N4CCCCC4)CC[C@@H]32)c1,3
O=S(=O)(Cc1ccccc1)N1CCCCN2[C@H](CO)[C@H](c3ccc(-c4ccncc4)cc3)[C@@H]2C1,-5
CC(C)NC(=O)Nc1ccc2c(c1)CC(=O)N([C@H](C)CO)C[C@H](C)[C@H](CN(C)Cc1ccc(Oc3ccccc3)cc1)O2,19
C[C@H](CO)N1C[C@H](C)[C@H](CN(C)Cc2ccc(C(=O)O)cc2)Oc2ccc(NC(=O)Nc3ccc(C(F)(F)F)cc3)cc2C1=O,5
C[C@H](CO)N1C[C@H](C)[C@H](CN(C)Cc2cccc(C(=O)O)c2)OCc2cn(nn2)CCCC1=O,0
CO[C@@H]1CN(C)C(=O)c2cc(NC(=O)Nc3cc(F)ccc3F)ccc2OC[C@H](C)N(C(=O)c2cnccn2)C[C@H]1C,3

# 5 compounds picked at random from the list so far:
SMILES,Yeast UUG start
COc1cccc(S(=O)(=O)N2C[C@H](O)COC[C@H]3O[C@@H](CC(=O)N4CCCCC4)CC[C@@H]32)c1,3
CN(C)CC#Cc1ccc([C@@H]2[C@H](CO)N3CCCCN(S(=O)(=O)c4ccccc4)C[C@@H]23)cc1,8
C[C@H](CO)N1C[C@H](C)[C@H](CN(C)Cc2ccc(C(=O)O)cc2)Oc2ccc(NC(=O)Nc3ccc(C(F)(F)F)cc3)cc2C1=O,5
C[C@H](CO)N1C[C@H](C)[C@H](CN(C)Cc2cccc(C(=O)O)c2)OCc2cn(nn2)CCCC1=O,0
CO[C@@H]1CN(C)C(=O)c2cc(NC(=O)Nc3cc(F)ccc3F)ccc2OC[C@H](C)N(C(=O)c2cnccn2)C[C@H]1C,3

# Next section.
SMILES,Yeast UUG start
CC(C)NC(=O)N1[C@@H]2CN(C(=O)c3ccc(F)cc3)c3ccccc3[C@@H]2[C@@H]1CO,19
CCNC(=O)[C@H]1[C@H](CO)[C@H]2Cn3c(ccc(-c4ccccc4)c3=O)[C@@H]1N2C(=O)c1ccccn1,0
C[C@@H]1CN([C@H](C)CO)C(=O)c2cc(NC(=O)CCC(F)(F)F)ccc2O[C@H]1CN(C)Cc1ccc(-c2ccccc2)cc1,5
CNC[C@@H]1Oc2c(NS(=O)(=O)c3cccs3)cccc2C(=O)N([C@H](C)CO)C[C@H]1C,0
O=C(C1CC1)N1C[C@H]2[C@@H](c3ccccc31)[C@H](CO)N2C(=O)c1ccccn1,-22
CCC(=O)Nc1ccc2c(c1)OC[C@H](C)N(Cc1cccnc1)C[C@@H](C)[C@@H](OC)CN(C)C2=O,-6
COc1ccc(-c2ccc3c(c2)[C@@H]2[C@@H](CCN2C(=O)NC2CCCCC2)[C@@H](CO)N3C)cc1,-2
C[C@H](CO)N1C[C@H](C)[C@@H](CN(C)S(=O)(=O)c2ccc(F)cc2)Oc2ccc(NS(C)(=O)=O)cc2C1=O,-3
O=C(C[C@H]1CC[C@@H]2[C@H](COC[C@@H](O)CN2CC2CCCCC2)O1)NCc1ccc(Cl)cc1,3
CC(C)C#Cc1ccc([C@H]2[C@H]3CN(C(=O)Nc4ccccc4)CCCCN3[C@H]2CO)cc1,57
Cc1ccccc1S(=O)(=O)N1CCCCN2[C@H](CO)[C@@H](c3ccc(-c4cncnc4)cc3)[C@H]2C1,3
O=C(C[C@H]1CC[C@@H]2[C@H](COC[C@@H](O)CN2C(=O)c2ccccn2)O1)N1CCN(c2ccccc2)CC1,7

# The list is partial; count on the stated rates, not on these rows.
